# Sa ugtP lethal – kills S. aureus RN4220 lacking UgtP. S. aureus RN4220 ugtP deletion, OD600 growth, 16 h; some inactives read as strong as hits. growth inhibition, % (no concentration beside the values). hit rate 0.54% among 330,000;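 active = z-score under -3 and OD600 up to 0.15 on both plates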;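 also: plate controls were untreated wells for no effect and antibiotic for full effect; wells of about 80 µL received 100 nL stock; the first replicate is given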
# RN4220 kill – S. aureus RN4220 growth inhibition; OD600, 16 h; inhibition, % (no concentration beside the values); AID 1259311; hit rate 0.33% among 330,000;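 active = z-score of -3 or lower and OD600 up to 0.18 on both plates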;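 also: plate controls were untreated cells for no effect and reference antibiotic for full effect; stock transfer was 100 nL into about 80 µL; one replicate is shown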
# PrP 5UTR inh – inhibition of PrP 5' UTR reporter expression; inhibition, % (concentration not given with the values); AID 488862; hit rate 0.35% among 340,000; cell-based PrP 5' UTR mRNA reporter, plate reader;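 active = every replicate at 50% or more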;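 also: 0 = median of the neutral control wells; tested in H4 reporter cells; numbers are from one replicate; inactives centre near -14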
# BJeLR viability – BJeLR cell viability loss; AID 1554; inhibition, % (no concentration beside the values); hit rate 0.17% among 300,000; BJeLR (HRASV12) viability, CellTiter-Glo ATP luminescence, 48 h; reference of the scale not given here;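 active = replicate mean above 50%; inconclusive = above 50% but judged a plate artefact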;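 also: 50 nL library stock added to about 25 µL; numbers are from one replicate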
# Autofluor counter – compound fluorescence in toxin protease inhibitor counterscreen; compound autofluorescence counterscreen, microsphere flow cytometry; active compounds read high; fluorescence intensity (concentration not given with the values); hit rate 3.1% among 360,000;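 active = at least 3 SD above the mean of all compounds, about 16000 in these data; inconclusive = too few beads counted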;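 also: 100 nL of 1 mM stock went into each well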
# Mtb hypoxia inh – reduces hypoxia-regulated biosensor signal in M. tuberculosis; M. tuberculosis hypoxia-regulated fluorescent reporter, fluorescence; hit rate 0.1% among 300,000; fluorescence inhibition, % (no concentration beside the values);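 active = 35 to 45% if threefold the growth effect, above 45% if 1.5-fold the growth effect; inactive = the rest, general growth blockers included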;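 also: wells of about 50 µL received 100 nL stock; 0% = vehicle wells and 100% = reference inhibitor wells; whole bacteria with a GFP reporter of the hypoxia response; strong numbers were not always called active; many hits fall short of the cut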
# Mtb hypoxia inh growth – also measured in Mtb hypoxia inh; calls as there; growth inhibition, %; measured here: M. tuberculosis growth (absorbance);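 0% = vehicle and 100% = reference antibiotic; read after six days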
# * = called active by the depositor; ? = inconclusive; . = no result given.
SMILES,Sa ugtP lethal,RN4220 kill,PrP 5UTR inh,BJeLR viability,Autofluor counter,Mtb hypoxia inh,Mtb hypoxia inh growth
O=C(OCc1ccc(F)cc1)c1ccc2ccccc2n1,6,5.0,-23,-6,3849,4,5
Cn1c(=O)c(=O)n(C)c2cc(N3CCCCC3)c(NS(=O)(=O)c3ccc(Br)cc3)cc21,3,0.4,-1,1,4694,5,5
COc1ccc(NC(=O)CNc2cc(S(=O)(=O)N3CCOCC3)ccc2NCC2CCCO2)cc1 (stereo unspecified),-12,-0.5,-7,-6,4495,-3,-2
CCn1c(=O)c(C(=O)NNS(=O)(=O)c2ccc(C)cc2)c(O)c2ccccc21,-7,39,-23,-2,2032,9,7
CCc1cc(=O)oc2cc(OCC(N)=O)c(Cl)cc12,7,6.7,-13,4,3440,-2,-2
CN1CCCC1CCNC(=O)c1cccc2c1C(=O)c1ccc(N3CCCC3)cc1S2(=O)=O (stereo unspecified),1,6.6,.,.,.,24,13
CC(C)CCN1C(=O)c2ccc(C(=O)OCn3nnc4ccccc4c3=O)cc2C1=O,2,2.3,-2,4,3468,4,-3
Oc1ccc(Cl)cc1CN1CCN(Cc2ccccc2)CC1,2,0.6,-8,3,3349,5,3
Cc1cc(=O)oc2cc(NC(=O)COc3cccc(C(F)(F)F)c3)ccc12,4,2.8,-13,.,3086,7,-3
CCOC(=O)Cc1csc(NC(=O)COc2cccc(C)c2)n1,1,2.0,-11,0,3905,1,2
Cc1ccc2c3c(cccc13)-c1ccccc1C2=O,47,2.3,-23,1,6102,-1,-2
COc1ccccc1C1CC(=O)Oc2c(C(C)C)ccc(C)c21 (stereo unspecified),87,-3.9,-10,.,3065,4,7
COc1ccc(C2(O)CCN(Cc3nnnn3Cc3ccc(F)cc3)CC2)cc1,8,6.6,-15,-8,7239,9,6
COc1ccc(C(CC(=O)O)NC(=O)Cc2ccccc2)cc1OC (stereo unspecified),6,6.5,-17,2,1962,12,8
COc1ccccc1CNC(=O)CSc1ccc(-c2ccccn2)nn1,7,2.8,-16,8,5023,8,-9
Cc1ccc(C(=O)CCC(=O)OCC(=O)Nc2ccccc2SCC#N)cc1,10,8.4,-16,.,9137,-3,4
CC1CN(C2CCN(S(=O)(=O)c3ccccc3)CC2)CC(C)O1 (stereo unspecified),1,-2.2,-8,1,7570,-5,-2
CCc1cc(=O)oc2c(C)c(OCC(=O)NC3CC(C)(C)NC(C)(C)C3)ccc12,-6,-2.8,-3,3,5716,-12,-2
Cc1ccc(C(=O)Nc2nc3ccccc3n3nnnc23)cc1,-5,5.1,-46,4,9855,0,7
COc1ccc(C(=O)NCc2cccnc2)cc1C(=O)NCc1cccnc1,3,6.5,-24,.,6135,3,-2
CCOc1ccc(N2CC(C(=O)NCCc3c[nH]c4ccc(OC)cc34)CC2=O)cc1 (stereo unspecified),3,1.9,-4,-2,3059,-15,1
Cc1ccc(-c2nn(-c3ccccc3)cc2/C=N/NC(=O)c2ccc(Br)o2)cc1,.,.,-22,-2,2576,.,.
CC(C)N1CCC(N2CCN(Cc3ccc(C#CC(C)(C)O)s3)CC2CCO)CC1 (stereo unspecified),10,2.9,-1,-2,2247,-2,7
CC(=O)c1ccc(-c2ccc(C(=O)NCC(c3ccc(F)cc3)N3CCOCC3)o2)cc1 (stereo unspecified),1,2.7,-8,0,6124,15,0
CCCCC(c1nnnn1CCOC)N1CCN(C(=O)c2ccco2)CC1 (stereo unspecified),-1,-0.2,-8,4,4970,.,.
COc1ccccc1N(C)S(=O)(=O)c1ccc(C(=O)OCC(=O)Nc2cc(C)on2)cc1,6,17,-14,-2,4583,2,9
CC(C)c1cc(C(=O)NCc2cccnc2)no1,-3,5.2,-30,0,9858,4,4
Cc1ccc(Oc2ncccc2CO)cc1,6,6.3,8,1,2142,8,1
COCCNC(=O)Cn1c(=O)n(CCC(=O)NCCc2ccccc2)c(=O)c2ccccc21,-2,9.0,-40,6,10809,7,2
CC1(O)CC(=O)N(c2ccccc2)O1 (stereo unspecified),-3,2.9,-22,-5,9040,17,4
CCC(=O)N(CCCN(C)C)c1nc(-c2cc(OC)ccc2OC)cs1,-5,-1.0,0,-2,.,2,-1
NC(=O)C(=O)NN=Cc1c[nH]c2ccc(Br)cc12,-4,0.0,.,.,.,6,1
COc1cc(C(=O)Nc2nc(-c3cccs3)cs2)cc(OC)c1OC,35,3.1,-36,-12,4338,6,-4
Cc1ccc(C)n1-c1nn(S(=O)(=O)c2ccccc2)c2cccc(F)c12,2,-6.0,.,-12,4471,-2,-5
COc1ccc(N2CC(O)=C(c3nc(-c4ccccc4)cs3)C2=N)cc1,-2,-0.3,-61,12,5886,-7,8
Cc1ccc(-c2nc(CN3CCCC(C(=O)N4CCOCC4)C3)c(C)o2)cc1 (stereo unspecified),6,-0.4,-15,-2,4802,3,1
O=C(O)COc1ccc(Cl)cc1C1CCCCC1,2,9.8,-10,.,3940,5,5
Cc1sc(NC(=O)CCC(=O)O)c(C(N)=O)c1-c1ccccc1,6,2.3,-9,15,2079,-4,16
Cc1ccc(NC(=O)COC(=O)c2ccc(S(=O)(=O)N3CCCCC3)cc2)cc1,-1,-0.1,-28,.,3721,4,4
COc1cc2ncnc(NCc3cccc(Cl)c3)c2cc1OC,5,9.6,11,12,4480,5,5
[O-][n+]1ccc(OCc2ccccc2)cc1,4,4.0,-1,-3,4224,-8,2
Cc1c(CN2CCCC(C(=O)c3cccc(OC(C)C)c3)C2)c(=O)n(-c2ccccc2)n1C (stereo unspecified),5,0.1,-16,7,4894,-3,6
CSc1ccccc1OCc1cc(C(=O)NC2CCc3ccccc32)no1 (stereo unspecified),4,-0.2,-5,4,5781,-3,4
Cc1cccc(-n2c(-c3ccncc3)n[nH]c2=S)c1,3,2.0,0,-11,3216,13,11
O=C(COc1ccc(F)cc1)NC1CC1,1,2.2,-21,0,9571,1,12

# The closing four entries of the part above open the next one:
SMILES,Sa ugtP lethal,RN4220 kill,PrP 5UTR inh,BJeLR viability,Autofluor counter,Mtb hypoxia inh,Mtb hypoxia inh growth
Cc1c(CN2CCCC(C(=O)c3cccc(OC(C)C)c3)C2)c(=O)n(-c2ccccc2)n1C (stereo unspecified),5,0.1,-16,7,4894,-3,6
CSc1ccccc1OCc1cc(C(=O)NC2CCc3ccccc32)no1 (stereo unspecified),4,-0.2,-5,4,5781,-3,4
Cc1cccc(-n2c(-c3ccncc3)n[nH]c2=S)c1,3,2.0,0,-11,3216,13,11
O=C(COc1ccc(F)cc1)NC1CC1,1,2.2,-21,0,9571,1,12
Cc1ccc(C)c(NC(=O)COC(=O)c2ccc3ccccc3n2)c1,2,1.6,-18,.,6415,6,5
O=C(Nc1nnc(Cc2ccc(F)cc2)s1)Nc1ccccc1F,2,6.0,4,-3,3778,-1,1
Nc1c(C(=O)CSc2nc3ccccc3o2)c(=O)[nH]c(=O)n1C1CC1,5,2.2,-2,.,3000,18,-2
Cc1ccc2c(c1)N(CC(=O)N1CCCc3ccccc31)C(=O)C(C)O2 (stereo unspecified),-2,7.4,0,-3,22241*,11,9
Nc1nonc1-c1noc(N2CCCCC2)n1,1,8.6,-50,-4,3695,.,.
CCc1cccc(OCCn2nc(C(=O)O)c3ccccc3c2=O)c1,-4,8.5,-24,2,3344,1,0
COc1ccc(-c2nnn(Cc3nn[nH]n3)n2)cc1OC,2,6.8,-66,1,5566,0,2
COC(=O)CCC(=O)NNC(=O)C1CC1(c1ccccc1)c1ccccc1 (stereo unspecified),5,3.0,-22,-9,3164,4,2
COc1cc(C(=O)Nc2ccncc2)cc(OC)c1OC,5,6.8,-26,-7,10518,17,11
COc1cccc(NC(=O)C2CCN(C(=O)[C@@H]3Cc4ccccc4CN3)CC2)c1,0,2.7,0,-5,6162,14,2
COCCNC(=O)CN(Cc1ccccc1)S(=O)(=O)c1ccc2nc(C)sc2c1,9,4.1,-16,5,3193,7,11
Cc1ccc(S(=O)(=O)N2CCCC(C(=O)Nc3ccc(C(=O)O)cc3)C2)cc1Cl (stereo unspecified),8,1.8,-15,10,4996,5,2
N/C(Cc1ccc(Cl)c(Cl)c1)=N\OC(=O)c1ccc(Br)o1,11,3.1,-4,-1,5345,10,2
CCN(CC)C(=O)CSc1nc2sc3c(c2c(=O)n1CCOC)CCC3,1,2.7,0,4,4235,9,2
CCC12CN3CCN(CC(C3)/C1=N\NC(=O)Nc1ccccc1)C2,.,.,-5,-21,7830,.,.
CC(=O)c1cccc(S(=O)(=O)Nc2cc(C(F)(F)F)ccc2N2CCOCC2)c1,2,5.6,10,.,2925,-1,-6
Cc1cc(C)cc(NC(=O)C2CCCN2/C=C/C(=O)C(F)(F)F)c1 (stereo unspecified),-5,3.4,-20,-7,2429,-1,15
CCOC(=O)c1c(CN(C)C)n(-c2ccccc2)c2cc(Br)c(O)cc12,7,0.7,0,-2,5064,-1,1
O=C(Nc1c[nH]c(=O)[nH]c1=O)OCc1ccccc1,1,0.6,-20,.,3826,-14,1
Cc1cc(C)c(C)c(S(=O)(=O)N2CCN(C(=O)c3ccccn3)CC2)c1C,11,12,-13,.,3821,9,10
c1ccc2c(c1)COC(CNC1CCCCC1)OC2,7,2.7,-22,.,3460,3,6
CC1CCCCC1NC(=O)CSCC(=O)O (stereo unspecified),4,3.0,-9,-3,10193,6,-2
O=C(CCn1nc(-c2ccc(Cl)cc2)ccc1=O)NCc1cccnc1,3,2.0,-18,16,10141,4,0
COc1ccc(C2C(C(C)=O)=C(C)N=c3sc(=Cc4ccco4)c(=O)n32)c(OC)c1 (stereo unspecified),-9,1.1,.,.,.,3,-3
CCOC(=O)c1c(C)nc2c(c1-c1cc(OC)ccc1OC)C(=O)c1ccccc1-2,-1,3.2,-24,1,9214,19,9
CCN(CC)S(=O)(=O)c1ccc2c(c1)N(CC(=O)NCCc1ccc(S(N)(=O)=O)cc1)C(=O)CO2,17,0.1,-12,-1,4418,6,3
O=C(Nc1ccc(C(F)(F)F)cc1)OC1CN2CCC1CC2 (stereo unspecified),-2,0.0,-33,2,6489,19,15
O=C(CCNC(=O)C1CCN(S(=O)(=O)c2ccccc2)CC1)NCc1ccc(Cl)cc1Cl,-6,-5.9,-21,-16,3876,-1,4
Cn1c(N2CCOCC2)c(C=NOC(=O)c2ccc(F)cc2)c2ccccc21,7,-0.2,.,.,.,21,27
Cc1ccc(C(=O)CSc2nnc(-c3ccccc3N)n2C)cc1C,3,7.1,-4,-8,3441,-2,-4
COc1ccc(C(=O)C(Sc2nnc(C)c(=O)[nH]2)c2ccc(OC)cc2)cc1 (stereo unspecified),-11,-2.9,16,5,?,-11,1
O=c1c2ccccc2oc2nc(C3CCCCC3)n(Cc3ccco3)c(=O)c12,-15,0.0,-8,1,3830,-2,2
CCC(=O)c1ccc(OCC(=O)Nc2ccc(N3CCOCC3)cc2N2CCOCC2)cc1,6,4.7,-22,14,4915,10,7
O=C1CCC(C(=O)NCc2ccc3c(c2)OCO3)N1 (stereo unspecified),7,3.4,-13,-1,3498,-6,-4
CCOC(=O)c1cc(-c2ccc(OC)cc2OC)nn1-c1ccc(C(=O)O)cc1,-2,-1.4,-54,-1,5975,-7,-2
CN(CCOc1ccc(Cl)cc1)C(=O)CN1C(=O)NC2(CCCCC2)C1=O,-8,-6.2,-10,0,?,-10,1
C=C1CCC[C@]2(C)C[C@H]3OC(=O)C(CNC(C)(CO)CO)[C@H]3CC12 (stereo partly specified),2,2.7,0,-12,3555,14,5
COc1ccccc1CCNC(=O)c1cccc(S(=O)(=O)NCc2ccccc2)c1,-3,-1.6,-8,1,6031,9,10

# Three of these compounds in a different format.
SMILES	Sa ugtP lethal	RN4220 kill	PrP 5UTR inh	BJeLR viability	Autofluor counter	Mtb hypoxia inh	Mtb hypoxia inh growth
COc1ccccc1CCNC(=O)c1cccc(S(=O)(=O)NCc2ccccc2)c1	-3	-1.6	-8	1	6031	9	10
COc1ccc(C(=O)C(Sc2nnc(C)c(=O)[nH]2)c2ccc(OC)cc2)cc1 (stereo unspecified)	-11	-2.9	16	5	?	-11	1
CCOC(=O)c1cc(-c2ccc(OC)cc2OC)nn1-c1ccc(C(=O)O)cc1	-2	-1.4	-54	-1	5975	-7	-2

# Screens (PubChem)
